RE007 growth inh – less growth of the S. pombe RE007 Vpr strain; S. pombe RE007 Vpr strain, BacTiter-Glo ATP luminescence, 24 h; control for the full effect not named in the record; Potency, µM (highest dose often 92.2 µM), inactives show at the top dose activity change, negative = less growth; 360,000 tested, 0.21% active; AID 651644; active = well fitted falling curve with a large enough effect; inconclusive = small, poorly fitted or top-dose-only effect; inactive = no such curve, though single readings can be large or run the other way;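 further: on the % scale 0 is the no-effect control and ±100 the full control effect; nearly all actives have a fitted effect of over 50% in size; the assay follows cell death caused by Vpr and the record does not say whether a fall means rescue or toxicity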
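Fission yeast RE007 carrying one integrated HIV-1 vpr copy, seeded at OD 0.01 in PMG+AL medium with 23 nL pinned compound. Grown 24 h at 30 degrees; viability read by BacTiter-Glo luminescence after 5 min.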
StopGo reporter – FMDV 2A StopGo reporter, luciferase signal | human cells with a luciferase reporter of 2A StopGo recoding; control for the full effect not named in the record | Potency, µM (titrated, usually from 57.9 µM), for inactives: at the top dose signal change, negative = less light | 410,000 tested, 1.2% active | AID 1159524; active = well fitted falling curve with a large enough effect; inconclusive = small, poorly fitted or top-dose-only effect; inactive = no such curve, though single readings can be large or run the other way; tested in HEK293T cells; further: on the % scale 0 is the no-effect control and ±100 the full control effect; nearly all actives have a fitted effect of over 45% in size; luciferase light after 4 h
SARS PLP yeast – inhibitors of SARS-CoV papain-like protease in yeast. AID 485353. Potency, µM (highest dose often 32.9 µM), inactives show at the highest dose activity, positive = growth rescue. 330,000 tested, 0.19% active. S. cerevisiae expressing SARS-CoV PLpro, growth rescue; control for the full effect not named in the record; active means well fitted rising curve with a large enough effect; inconclusive means small, poorly fitted or top-dose-only effect; inactive means no such curve, though single readings can be large or run the other way; further: 0% is about no effect; nearly all actives have a fitted effect of over 55% in size; growth read by luminescence after 48 h
MARV entry inh – blocks Marburg virus binding to or entry into cells; AID 540276; Marburg virus pseudotyped entry inhibition, cell reporter; control for the full effect not named in the record; about a third of the inactives were read at about 46 µM; Potency, µM (top dose mostly 37.8 µM), for inactives: top-dose activity change, negative = inhibition, actives largely listed as inhibitors; 300,000 tested, 1.8% active; active = well fitted inhibition curve with a large enough effect; inconclusive = small, poorly fitted or top-dose-only effect, or effect the other way; inactive = flat fitted curve, though single readings scatter; tested in HEK293 cells; about a fifth of its hits are not listed in these tables; further: on the % scale 0 is the no-effect control and ±100 the full control effect; luciferase read-out
Lassa entry inh – inhibitors of Lassa virus binding or cell entry. Potency, µM (titrated, usually from 37.9 µM), for the others: top-dose activity change, negative = inhibition, hits mostly inhibitors. 300,000 tested, 1.2% active. Lassa virus pseudotype entry inhibition, cell reporter; control for the full effect not named in the record; active means well fitted inhibition curve with a large enough effect; inconclusive means small, poorly fitted or top-dose-only effect, or effect the other way; inactive means flat fitted curve, though single readings scatter; tested in HEK293 cells; further: on the % scale 0 is the no-effect control and ±100 the full control effect; nearly all actives have a fitted effect of over 50% in size; luciferase read-out
* marks the source's active call; other numbers are inactive results; u = inconclusive; x = no result given; [ ] = dose if it differs, or a comment. Potency means the concentration at half of the fitted maximal effect. Not all compounds are listed; count on the stated rates, not on these rows.

SMILES | RE007 growth inh | StopGo reporter | SARS PLP yeast | MARV entry inh | Lassa entry inh
CC(C)CN(C(=O)COc1ccc([N+](=O)[O-])cc1)c1c(N)n(CC(C)C)c(=O)[nH]c1=O | 2% | -4% | 5% | x | x
COc1ccc(CNC(=O)CN(C)S(=O)(=O)c2ccc3c(c2)OCCO3)cc1OC | 8% | -21% | -1% | x | x
CC(C)Oc1cc2ccccc2cc1CNC[C@H]1O[C@@H](n2cnc3c(N)ncnc32)[C@H](O)[C@@H]1O | -11% | u | 0% | x | x
O=C(NC1CCCCC1)c1n[nH]c2c1CC(c1ccccc1)CC2 (stereo not drawn) | -5% | 56%[activator] | -2% | x | x
Cc1ccc(C)c(N2CCN(C(=O)CCc3nc(-c4ccccc4C)no3)CC2)c1 | 6% | -24% | -23% | x | x
Cc1cccc(OCC(=O)N(C)c2c(N)n(Cc3ccccc3)c(=O)[nH]c2=O)c1C | -5% | -9% | 0% | x | x
COC(=O)C1CCN(CC(=O)N(C)c2c(N)n(Cc3ccccc3)c(=O)[nH]c2=O)CC1 | 3% | -15% | 2% | x | x
CCN1C(=O)CC(C(=O)OC)=C1C | -2% | 9% | 8% | x | x
COc1ccc(NC(=O)Cc2ccc(Cl)c(Cl)c2)cn1 | 1% | 3% | -4% | x | x
COC(=O)C1=C(N)OC2=C(C(=O)CC(C)(C)C2)C1c1ccccc1OC (stereo not drawn) | 1% | -3% | -2% | x | x
O=C(O)CSc1ccc(S(=O)(=O)N2CCCC2)cn1 | -4% | -17% | 2% | x | x
CC(=O)Nc1ccc(NC(=O)CCn2c(=S)oc3ccccc32)cc1 | -7% | 0% | 1% | x | x
COc1ccc([C@H]2C[C@@H](n3cc(-c4ccc(F)cc4)nn3)[C@H](O)CN2C(=O)C2CCCCC2)cc1 | 25% | 20% | x | x | 17%[46.1 µM]
COC(=O)[C@@H](NS(=O)(=O)c1cc(Br)ccc1Br)C(C)C | -6% | 52%[activator] | x | x | -5%[46.1 µM]
CC(C)(C)c1ccc(C(=O)N2[C@H](COCc3ccccc3)C=CS2(=O)=O)cc1 | -9% | -16% | x | x | u
O=C(Cn1cc(COc2c(F)c(F)c(Br)c(F)c2F)nn1)c1ccc(O)cc1 | 2% | -23% | x | x | 15%[46.1 µM]
Cc1ccc([C@H]2C[C@@H](O)[C@H](n3cc(-c4ccc(F)cc4)nn3)CN2C(=O)c2cccs2)cc1 | 5% | u | x | x | u
O=C(NCCc1ccccc1)c1cccc(NC(=O)C2CC2)c1 | -2% | 64%[activator] | x | x | u
COCOCCn1cc(CN2CCS(=O)(=O)N(Cc3ccc(-c4ccc(C)cc4)cc3)C(C(C)C)C2=O)nn1 (stereo not drawn) | 9% | -4% | x | x | u
COc1ccc(-c2ccc(CN3C(CC(C)C)C(=O)N(Cc4cn(Cc5ccco5)nn4)CCS3(=O)=O)cc2)cc1OC (stereo not drawn) | -7% | -28% | x | x | u
CNC(=O)C[C@H]1C(=O)N(C2CCCCC2)C[C@@H]1C | 1% | -14% | x | x | 3%[46.1 µM]
COc1ccc(-c2ccc(CN3C(C(C)C)C(=O)N(Cc4cn(Cc5ccco5)nn4)CCS3(=O)=O)cc2)cn1 (stereo not drawn) | -6% | -16% | x | x | -1%[46.1 µM]
Cc1ccccc1-c1ccc(CN2C(C)C(=O)N(Cc3cn(Cc4ccco4)nn3)CCS2(=O)=O)cc1 (stereo not drawn) | 12% | -23% | x | x | u
Cc1ccc2c(CN3CCN(c4ccccc4)CC3)cc(=O)oc2c1 | 3% | -7% | x | x | u
CCCCCCCCNS(=O)(=O)CCNCc1ccco1 | -15% | -11% | x | x | u
COc1ccccc1CNS(=O)(=O)CCNC1CCCCC1 | -10% | -20% | x | x | 3%[46.1 µM]
O=S1(=O)c2c(F)cccc2OC(COc2ccccc2)CN1CCc1ccc(F)cc1 (stereo not drawn) | 4% | 10% | x | x | u
COc1ccc2c(CN3CCOCC3)cc(=O)oc2c1 | 7% | -2% | x | x | u
O=S1(=O)N[C@@H](c2ccccc2)COc2cc(Br)ccc21 | 0% | 8% | x | x | 8%[46.1 µM]
COCOCCn1cc(CN2CCS(=O)(=O)N(Cc3ccc(-c4cccc(N(C)C)c4)cc3)C(CC(C)C)C2=O)nn1 (stereo not drawn) | 7% | -8% | x | x | 7%[46.1 µM]
O=S1(=O)c2ccc(Br)cc2N2CCC[C@@H]2CN1C1CC1 | 4% | u | x | x | u
CC1C(=O)N(Cc2cn(Cc3ccco3)nn2)CCS(=O)(=O)N1Cc1ccc(-c2cccc(CO)c2)cc1 (stereo not drawn) | -6% | -17% | x | x | 11%[46.1 µM]
CN(Cc1ccccc1)c1cc2c(c3c1ccn3C)C1CCC2C1 (stereo not drawn) | -8% | -19% | x | x | -16%[46.1 µM]
CC1C(=O)N(Cc2cn(CC3CCCCC3)nn2)CCS(=O)(=O)N1Cc1ccc(-c2ccc(F)nc2)cc1 (stereo not drawn) | -8% | -22% | x | x | u
Cc1ccc([C@H]2C[C@H](O)[C@@H](n3cc(COC(=O)c4ccccc4)nn3)CN2C(=O)C2CCCCC2)cc1 | 20% | u | x | x | u
CC(C)C1C(=O)N(Cc2cn(CCC3OCCCO3)nn2)CCS(=O)(=O)N1Cc1ccc(-c2ccc(Cl)c(Cl)c2)cc1 (stereo not drawn) | 0% | u | x | x | u
Cc1ccc([C@H]2C[C@H](n3cc(-c4ccc(F)cc4)nn3)[C@@H](O)CN2CC2CCCCC2)cc1 | 2% | -3% | x | x | u
Cc1ccc(-c2ccc(CN3C(C(C)C)C(=O)N(Cc4cn(CCC5OCCO5)nn4)CCS3(=O)=O)cc2)c(C)c1 (stereo not drawn) | 21% | -31% | x | x | u
CN(c1ccc(Cl)cc1)c1cc2c(c3c1ccn3C)C1CCC2O1 (stereo not drawn) | 11% | -28% | x | x | u
CC(C)CC1C(=O)N(Cc2cn(CCC3OCCO3)nn2)CCS(=O)(=O)N1Cc1ccc(-c2ccc(Cl)c(Cl)c2)cc1 (stereo not drawn) | 1% | u | x | x | u
Cc1ccc(CN2CC(N3CCN(C4CCN(C)CC4)CC3)CS2(=O)=O)cc1 (stereo not drawn) | 3% | -13% | x | x | 3%[46.1 µM]
Cc1ccc([C@H]2C[C@H](O)[C@@H](n3cc(COC(=O)c4ccccc4)nn3)CN2CC2CCCCC2)cc1 | -20% | u | x | x | u
CN1CCN(C2CN(Cc3cn(Cc4ccccc4F)nn3)S(=O)(=O)C2)CC1 (stereo not drawn) | -3% | -9% | x | x | -4%[46.1 µM]
CC1C(=O)N(Cc2cn(CCC3OCCO3)nn2)CCS(=O)(=O)N1Cc1ccc(-c2ccc(Cl)cc2)cc1 (stereo not drawn) | -4% | u | x | x | u
CC(C)(C)OC(=O)N1CCC(C(=O)Nc2cccc(C(=O)N3CCCCC3)c2)CC1 | 2% | u | x | x | u
O=C(Nc1cccc(C(=O)N2CCCC2)c1)C1CCCC1 | 1% | -16% | x | x | u
O=[N+]([O-])c1ccc(CN2CC(N3CCN(CCO)CC3)CS2(=O)=O)cc1 (stereo not drawn) | 2% | -14% | x | x | 17%[46.1 µM]
CNC(=O)C[C@H]1C(=O)N(Cc2ccccc2)C[C@@H]1CSC | 20% | -13% | x | x | 2%[46.1 µM]
CSc1ccc(-c2cc3c(c4c2ccn4C)C2CCC3O2)cc1 (stereo not drawn) | -14% | -4% | x | x | u
O=C(Cn1cc(COc2ccc3ccc(=O)oc3c2)nn1)c1ccc(O)cc1 | 2% | 17% | x | x | u
O=S1(=O)CC(N2CCCCC2)CN1Cc1ccc(F)cc1 (stereo not drawn) | 3% | 0% | x | x | u
CC(C)(C)OC(=O)N1CCCC(C(=O)Nc2cccc(C(=O)N3CCCCC3)c2)C1 (stereo not drawn) | 3% | -18% | x | x | -39%[46.1 µM]
CC(C)C1C(=O)N(Cc2cn(Cc3ccco3)nn2)CCS(=O)(=O)N1Cc1ccc(-c2ccc(Cl)cc2)cc1 (stereo not drawn) | 10% | u | x | x | u
CC(C)C1C(=O)N(Cc2cn(CC3CCCCC3)nn2)CCS(=O)(=O)N1Cc1ccc(-c2ccccc2)cc1 (stereo not drawn) | 3% | -26% | x | x | u
Cn1ccc2c(-c3cncc4ccccc34)cc3c(c21)C1CCC3C1 (stereo not drawn) | -16% | 0% | x | x | u
Cn1ccc2c(-c3cccc(C=O)c3F)cc3c(c21)C1CCC3C1 (stereo not drawn) | -5% | 2% | x | x | 11%[46.1 µM]
CN(Cc1ccccc1)Cc1cc(=O)oc2ccccc12 | -4% | 18% | x | x | u
Cn1ccc2c(N3CCCC3)cc3c(c21)C1CCC3O1 (stereo not drawn) | -26% | -18% | x | x | u
CC(C)C1C(=O)N(Cc2cn(CCC3OCCO3)nn2)CCS(=O)(=O)N1Cc1ccc(-c2ccccc2C(F)(F)F)cc1 (stereo not drawn) | -12% | -26% | x | x | u
COc1ccc(NC(=O)C[C@H]2C(=O)N(c3ccccc3)C[C@@H]2Cc2ccccc2)cc1 | -20% | -3% | x | x | -10%[46.1 µM]

Continuation.
SMILES | RE007 growth inh | StopGo reporter | SARS PLP yeast | MARV entry inh | Lassa entry inh
O=C(Cn1cc(COc2ccccc2C(F)(F)F)nn1)c1ccc(O)cc1 | -9% | -1% | x | x | 11%[46.1 µM]
CC(C)C1C(=O)N(Cc2cn(Cc3ccco3)nn2)CCS(=O)(=O)N1Cc1ccc(-c2ccncc2)cc1 (stereo not drawn) | -4% | 0% | x | x | 17%[46.1 µM]
CC1C(=O)N(Cc2cn(CC3CCCCC3)nn2)CCS(=O)(=O)N1Cc1ccc(-c2ccc(Cl)c(Cl)c2)cc1 (stereo not drawn) | 0% | u | x | x | u
O=C(C[C@H]1C(=O)N(c2ccccc2)C[C@@H]1Cc1ccccc1)Nc1ccccc1 | 2% | -14% | x | x | u
C#CCN1C=CC(=O)[C@@H](OC(=O)Nc2ccccc2Br)[C@H]1c1ccccc1Br | 1% | 13% | x | u | x
CCCN(CC1CC1)c1cc2c(c3c1ccn3C)C1CCC2C1 (stereo not drawn) | u | -22% | x | 3.1µM* | x
O=C(Nc1ccc(C(=O)N2CCOCC2)cc1)c1ccccc1 | -7% | 8% | x | u | x
CC(C)CC1C(=O)N(Cc2cn(Cc3ccco3)nn2)CCS(=O)(=O)N1Cc1ccc(-c2ccc(Cl)c(Cl)c2)cc1 (stereo not drawn) | 7% | u | x | 25µM* | x
Cc1ccc(S(=O)(=O)N2CCC(=O)N([C@H](COCc3ccc(Cl)cc3)C(C)C)CC2)cc1 | 5% | -1% | x | u | x
O=C(Cn1cc(COc2ccc(C(=O)c3ccccc3)cc2)nn1)c1ccc(O)cc1 | 10% | -1% | x | u | x
O=C(NCCc1ccccc1)c1ccc(NC(=O)C2CCCC2)cc1 | -4% | 15% | x | u | x
Cc1ccc(-c2ccc(CN3C(CC(C)C)C(=O)N(Cc4cn(Cc5ccco5)nn4)CCS3(=O)=O)cc2)cc1 (stereo not drawn) | 4% | -11% | x | u | x
COCOCCn1cc(CN2CCS(=O)(=O)N(Cc3ccc(-c4ccc(F)cc4)cc3)C(CC(C)C)C2=O)nn1 (stereo not drawn) | -3% | u | x | u | x
CCCCNCCS(=O)(=O)NCc1ccc(OC)cc1 | -13% | -22% | x | u | x
C=CC(=O)Nc1cccc(Oc2ccnc(Nc3ccc(N4CCN(C)CC4)cc3)n2)c1 | -19% | -21% | x | 0% | x
COC(=O)[C@H]1[C@H](CCc2ccccc2)NC(=O)N(Cc2ccccc2)[C@@H]1C | -8% | u | x | -24%[14.2 µM] | x
Cc1ccc(NC(=O)c2ncn(CCCN3CCN(c4ncccn4)CC3)n2)cc1C | -25% | -5% | x | -3% | x
CN(c1cccc(F)c1)c1cc2c(c3c1ccn3C)C1CCC2C1 (stereo not drawn) | -17% | -22% | x | u | x

High-throughput results deposited in PubChem by National Center for Advancing Translational Sciences (NCATS).
